CFTR F508del: compounds raising F508del-CFTR protein level – cell-based, HeLa F508del-CFTR, immunofluorescence, viability, primary screen (AID 1224863); 10,000 compounds, 0.1% hits; calls, or highest fold increase where a dose series was run; HeLa F508del-CFTR, immunofluorescence total CFTR, 24 h; by the record results were divided by relative cell number; some inactives read as strong as hits; in the data nearly all actives have a first-pass fold increase above 1.5; a few of its hits are not listed in these tables;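 also: total CFTR protein by anti-CFTR immunofluorescence in fixed cells; first pass at 25 µM or 10 µg/mL by library and series up to twice that; 1 = untreated cells; first-pass hits also needed half or more of the cells alive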
CFTR F508del fold 25 µM: recorded beside CFTR F508del, whose call it bears; fold increase; measured here: primary screen single dose 25 uM; library dosed in µM
CFTR F508del fold 10 ug/mL: recorded beside CFTR F508del, whose call it bears; fold increase; measured here: primary screen 10 ug/mL
CFTR F508del viability 25 µM: recorded beside CFTR F508del, whose call it bears; viability, %; measured here: primary viability 25 uM; library dosed in µM;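 0% = killed and 100% = untreated cells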
CFTR F508del viability 10 ug/mL: recorded beside CFTR F508del, whose call it bears; viability, %; measured here: primary viability 10 ug/mL;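 0% = killed and 100% = untreated cells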
* marks the source's active call; other numbers are inactive results; i = inactive; nt = no result given; & = joins results of further samples. Not all compounds are listed, so the mix of outcomes need not match the whole.

The first 2 records, ahead of the listing:
SMILES	CFTR F508del	CFTR F508del fold 10 ug/mL	CFTR F508del viability 10 ug/mL	others
CC1(C)OC(=O)C2(Cc3ccccc3N3CCCC32)C(=O)O1 (stereo not drawn)	i	1.03	102.0
NC(=O)c1ccccc1O	i	nt	nt	CFTR F508del fold 25 µM=1.05;CFTR F508del viability 25 µM=94.0

The whole of this part, from the start:
SMILES	CFTR F508del	CFTR F508del fold 10 ug/mL	CFTR F508del viability 10 ug/mL	others
CC1(C)OC(=O)C2(Cc3ccccc3N3CCCC32)C(=O)O1 (stereo not drawn)	i	1.03	102.0
NC(=O)c1ccccc1O	i	nt	nt	CFTR F508del fold 25 µM=1.05;CFTR F508del viability 25 µM=94.0
CCCn1c(SCC#N)nc2sc3c(c2c1=O)CCCC3	i	1.1	87.0
Clc1ccc(Cl)c(SCc2nnc(-c3ccccc3)o2)c1	i	1.05	110.0
O=C(CNC(=O)C12CC3CC(CC(C3)C1)C2)NC1CCCCCC1	i	0.97	105.0
Cc1ccc(-c2nc(SCc3cc([N+](=O)[O-])cc4c3OCOC4)[nH]c2-c2ccc(C)cc2)cc1	i	1.09	87.0
CC1CC(C)CN(CC(=O)c2ccc[nH]2)C1 (stereo not drawn)	i	1.11	94.0
O=S(=O)(NC(c1ccccc1)C1CC1)c1ccc(Br)s1 (stereo not drawn)	i	0.93	83.0
Cc1ccc(CCC2CCN(S(=O)(=O)c3cccc(S(N)(=O)=O)c3)CC2)cc1	i	0.9	82.0
CC(=O)NC(CC(=O)Nc1nccs1)c1cccs1 (stereo not drawn)	i	0.87	84.0
CCOc1cc(C2NCC(c3ccccc3)c3c2[nH]c2ccccc32)ccc1OCC(C)C (stereo not drawn)	i	0.98	105.0
FC(F)(F)c1cnc(N2CCNc3ccccc3C2)c(Cl)c1	i	1.05	88.0
O=C(COC(=O)c1csc2c1CCCC2)c1ccc2c(c1)OCCO2	i	1.01	95.0
CCOC(=O)C1C(C(=O)OC)=C(C)NC(C)=C1C(=O)OC	i	0.95	101.0
CC(C)c1nc(SCc2nnc(-c3ccc(C(C)(C)C)cc3)o2)n[nH]1	i	0.92	79.0
N#Cc1ccc(Cc2cnc(N)s2)c(C(F)(F)F)c1	i	1.03	86.0
COCCn1nc(C(=O)NC(C2CC2)C2CC2)ccc1=O	i	1.03	106.0
COc1cccc(-n2cnn(CN3CCOCC3)c2=S)c1	i	0.94	97.0
COc1cc2ccccc2cc1C(=O)OC1CC(C)OC1=O (stereo not drawn)	i	1.03	102.0
S=c1n(CN2CCCC2c2cccnc2)nc(C2CC2)n1-c1ccccc1 (stereo not drawn)	i	1	102.0
Nc1ccc(S(=O)(=O)Nc2nccs2)cc1	i	nt	nt	CFTR F508del fold 25 µM=1.12;CFTR F508del viability 25 µM=93.0
CS(=O)(=O)c1ccc(F)c(NS(=O)(=O)c2ccc(S(=O)(=O)N3CCCC3)cc2)c1	i	1	108.0
COc1ccc(OC)c2c1CN(Cn1cnc(-c3ccc([N+](=O)[O-])cc3)n1)CC2O (stereo not drawn)	i	0.95	97.0
CN(C)S(=O)(=O)c1ccc2c(c1)CCN2Cc1c(F)c(F)c(F)c(F)c1F	i	1	89.0
O=S(=O)(c1ccc(F)cc1)N1CCCN(Cn2nnc(-c3ccccc3)n2)CC1	i	0.99	96.0
O=C(O)C1CSCN1 (stereo not drawn)	i	nt	nt	CFTR F508del fold 25 µM=1.05;CFTR F508del viability 25 µM=90.0
O=S(=O)(C/C=C/c1ccccc1)Cc1ccc(F)cc1Cl	i	0.97	93.0
O=S(=O)(Cc1ccc(F)cc1)N1CCC(CN2CCOCC2)CC1	i	0.95	107.0
CC(C)c1ccc(-n2nnnc2SCc2cc(F)cc3cccnc23)cc1	i	0.88	85.0
Cc1ccc2c(CSc3nnnn3C3CC3)cc(=O)oc2c1	i	1.09	96.0
O=C(CCC(=O)c1cccs1)NC(C1CC1)C1CC1	i	1.02	97.0
O=S1(=O)CCC(N2CCN(Cc3nc(-c4ccccc4)no3)CC2)C1 (stereo not drawn)	i	1.1	102.0
O=S(=O)(c1ccc(-c2csc(C3CC3)n2)cc1)N1CCOCC1	i	0.94	94.0
Cc1cc2c(OCC(CNC(C)(C)C)OC(=O)c3ccccc3)cccc2[nH]1 (stereo not drawn)	i	nt	nt	CFTR F508del fold 25 µM=1.1;CFTR F508del viability 25 µM=98.0
COc1ccc(-c2nnc(Sc3ccc4nnnn4n3)n2C(C)C)cc1	i	0.75	76.0
O=C1CCc2cc(S(=O)(=O)NCCCOCC3CC3)ccc2N1	i	1.15	95.0
O=S(=O)(Cc1ccccc1)N1CCN(Cn2ncn(-c3ccccc3)c2=S)CC1	i	1.07	114.0
CN(C)S(=O)(=O)c1ccc2nnn(OCc3coc(-c4ccc(F)cc4)n3)c2c1	i	0.96	96.0
C#CCNC(=O)CCC1CCCCC1	i	0.97	97.0
CN(CCCNC(=O)c1ccc(=O)[nH]n1)CC(F)(F)F	i	1.04	87.0
CCN(CC)CCN(CC(C)C)S(=O)(=O)c1ccc2oc(=O)ccc2c1	i	1.06	94.0
Cc1nc(CN2CCN(CN3C(=O)CC4(CCCC4)C3=O)CC2)cs1	i	0.99	97.0
O=C(c1ccc(SC(F)(F)F)cc1)N1CCN(S(=O)(=O)N2CCCC2)CC1	i	0.89	84.0
COC(=O)C1=C(C)NC(=S)NC1c1ccc(F)cc1F (stereo not drawn)	i	1.03	89.0
CCCCSc1nnc(CCC(N)=O)n1C1CC1	i	1	103.0
CCCOc1ccc(C(C)NC(=O)C2(C)CC2(Cl)Cl)cc1OCCC (stereo not drawn)	i	0.96	92.0
CN(C)CCCN1c2ccccc2CCc2ccc(Cl)cc21	i	nt	nt	CFTR F508del fold 25 µM=1.06&1.08;CFTR F508del viability 25 µM=99.0&82.0
CCN(CC)S(=O)(=O)c1ccc(S(=O)(=O)N(C)C(C)C)cc1	i	1	88.0
O=C1CN(C(=O)COC(=O)C23CC4CC(CC(Br)(C4)C2)C3)c2ccccc2N1	i	1.05	78.0
O=S(=O)(c1ccc(Cl)c(C(F)(F)F)c1)N1CCCN(c2ccc(C(F)(F)F)cn2)CC1	i	1	99.0

New compounds follow:
SMILES	CFTR F508del	CFTR F508del fold 10 ug/mL	CFTR F508del viability 10 ug/mL	others
CC(NC(=O)CSC1=NCCS1)C1CC2CCC1C2 (stereo not drawn)	i	0.99	77.0
CC(C)OC(=O)C(C)(C)Oc1ccc(C(=O)c2ccc(Cl)cc2)cc1	i	nt	nt	CFTR F508del fold 25 µM=1.02&0.9&0.98;CFTR F508del viability 25 µM=80.0&88.0&95.0
CC/C=C(/C)C(=O)NC(C)c1cc(C)sc1C (stereo not drawn)	i	0.91	79.0
Cc1[nH]cc[n+]1CC1CCC2C(C1=O)c1ccccc1N2C (stereo not drawn)	i	nt	nt	CFTR F508del fold 25 µM=0.98;CFTR F508del viability 25 µM=95.0
Nc1nc(CSc2nncn2-c2cccc(Cl)c2)nc2ccccc12	i	1.05	94.0
C=CCNc1nc(C(=O)OCc2nnsc2Cl)cs1	i	0.97	85.0
CCCCn1c(=O)[nH]c(=O)c2c1nc(CSc1nc(C)nc3sc4c(c13)CCC4)n2CCC	i	0.94	105.0
CCOC(=O)O[C@]1(C(=O)OCCl)CC[C@H]2[C@@H]3CCC4=CC(=O)C=C[C@]4(C)[C@H]3[C@@H](O)C[C@@]21C	i	nt	nt	CFTR F508del fold 25 µM=1.1;CFTR F508del viability 25 µM=75.0
CC(C)(C)NC(=O)CC1(C(=O)N2CCN(C(=O)OC(C)(C)C)CC2)CCCC1	i	1.03	98.0
O=C1CCc2cc(S(=O)(=O)NC3CCCC(C(F)(F)F)C3)ccc2N1 (stereo not drawn)	i	0.9	105.0
C=CCNC(=O)COC(=O)c1c(C)nsc1NC	i	1	90.0
COC(=O)c1cc2c(OC)c(OC)c(OC)cc2[nH]1	i	1.13	93.0
CCC(C)NC(=O)Nc1cc(Br)ccc1Br (stereo not drawn)	i	1.08	97.0
Cc1ccc(S(=O)(=O)NCl)cc1	i	nt	nt	CFTR F508del fold 25 µM=1.08;CFTR F508del viability 25 µM=80.0
N#Cc1cc([N+](=O)[O-])ccc1Nc1ccc2c(c1)OCCO2	i	0.91	90.0
CC1(C)NC(=O)N(Cc2ccc(CN)cc2)C1=O	i	1.05	102.0
O=C1NC2(CCCCCC2)C(=O)N1CN1CCN(S(=O)(=O)c2ccc3c(c2)CCCC3)CC1	i	1.03	100.0
CC(C)(C)C(=O)OCOP(=O)(COCCn1cnc2c(N)ncnc21)OCOC(=O)C(C)(C)C	i	nt	nt	CFTR F508del fold 25 µM=1.23;CFTR F508del viability 25 µM=91.0
CCc1[nH]c(C(=O)NCCN2CCS(=O)(=O)CC2)c(C)c1C(=O)OC	i	0.98	105.0
Cc1c(CSc2nnnn2C2CC2)noc1-c1ccc(F)cc1	i	0.92	99.0

7 records drawn at random from those above, as already listed:
SMILES	CFTR F508del	CFTR F508del fold 10 ug/mL	CFTR F508del viability 10 ug/mL	others
CCC(C)NC(=O)Nc1cc(Br)ccc1Br (stereo not drawn)	i	1.08	97.0
CCc1[nH]c(C(=O)NCCN2CCS(=O)(=O)CC2)c(C)c1C(=O)OC	i	0.98	105.0
Cc1ccc(S(=O)(=O)NCl)cc1	i	nt	nt	CFTR F508del fold 25 µM=1.08;CFTR F508del viability 25 µM=80.0
CC(C)(C)C(=O)OCOP(=O)(COCCn1cnc2c(N)ncnc21)OCOC(=O)C(C)(C)C	i	nt	nt	CFTR F508del fold 25 µM=1.23;CFTR F508del viability 25 µM=91.0
COC(=O)c1cc2c(OC)c(OC)c(OC)cc2[nH]1	i	1.13	93.0
C=CCNC(=O)COC(=O)c1c(C)nsc1NC	i	1	90.0
O=C1NC2(CCCCCC2)C(=O)N1CN1CCN(S(=O)(=O)c2ccc3c(c2)CCCC3)CC1	i	1.03	100.0

The listing continues:
SMILES	CFTR F508del	CFTR F508del fold 10 ug/mL	CFTR F508del viability 10 ug/mL	others
Cn1c(C2CC2)nn(CN2CCN(Cc3cccs3)CC2)c1=S	i	0.98	94.0
Cc1c(C(C)N)sc2ccccc12 (stereo not drawn)	i	1.14	86.0
c1ccc(-n2cnc(SCc3ccc(-n4cccn4)cc3)n2)cc1	i	1.04	96.0
O=S1(=O)OC(c2ccc(O)cc2)(c2ccc(O)cc2)c2ccccc21	i	nt	nt	CFTR F508del fold 25 µM=1.17;CFTR F508del viability 25 µM=89.0
O=S(=O)(N1CCCC1)N1CCN(Cc2ccccc2F)CC1	i	1	94.0
CCCCc1noc(CN2C(=O)NC(C)(c3cc4ccccc4o3)C2=O)n1 (stereo not drawn)	i	0.96	96.0
CO[C@@]1(NC(=O)CSCC#N)C(=O)N2C(C(=O)O)=C(CSc3nnnn3C)CSC21 (stereo partly drawn)	i	nt	nt	CFTR F508del fold 25 µM=1.08;CFTR F508del viability 25 µM=101.0
CCOc1ccc(CN(C)c2c(C#N)c(=O)n(C)c(=O)n2C)cc1OC	i	0.95	94.0
CC1CCC(NC(=O)N(CCCl)N=O)CC1 (stereo not drawn)	i	nt	nt	CFTR F508del fold 25 µM=1.05;CFTR F508del viability 25 µM=98.0
CC(=O)c1c(SCC(=O)NC2CCCCC2C)nc(=O)[nH]c1C (stereo not drawn)	i	1.07	90.0
O=C(Nc1ccc(NC(=O)C2C3C=CC(C3)C2C(=O)O)cc1)C1CCCO1 (stereo not drawn)	i	0.97	87.0
N#Cc1ccc(Nc2ccc(N3CCOCC3)nc2)c([N+](=O)[O-])c1	i	1.08	100.0
CCOC(=O)/C(=C/c1ccc(F)cc1)C1=Nn2c(C)nnc2SC1	i	0.76	69.0
N[C@H](Cc1ccccc1)C(=O)O	i	nt	nt	CFTR F508del fold 25 µM=1.1;CFTR F508del viability 25 µM=91.0
CC(C)(C)c1ccc(C(O)CCCN2CCC(C(O)(c3ccccc3)c3ccccc3)CC2)cc1 (stereo not drawn)	i	nt	nt	CFTR F508del fold 25 µM=0.61&0.57;CFTR F508del viability 25 µM=3.0&3.0
O=S(=O)(CCNS(=O)(=O)c1cccc(Br)c1)c1ccccc1	i	0.91	76.0
CCOC(=O)C1=C(COC(=O)c2c(C)nsc2NC)NC(=O)NC1	i	0.92	101.0
Cn1c(N)c(-c2csc(-c3ccc(Br)cc3)n2)c(=O)n(C)c1=O	i	0.95	94.0
COc1ccc(C(CNc2ccc3nnc(C(F)(F)F)n3n2)N2CCCCC2)cc1 (stereo not drawn)	i	0.89	91.0
N#Cc1ccc(Cn2cccc(C(F)(F)F)c2=O)cc1	i	0.9	88.0
CC(C)N1C(=O)C(=O)N(CC(=O)N2CCSc3ccccc32)C1=O	i	1.03	101.0
CC(OC(=O)c1cnn(C)c1)C(=O)N1CCNC1=O (stereo not drawn)	i	0.96	84.0
CC(=O)OCC(CCn1cnc2cnc(N)nc21)COC(C)=O	i	nt	nt	CFTR F508del fold 25 µM=1.05&1.11;CFTR F508del viability 25 µM=105.0&107.0
N#CCCn1cnc2c(Br)cc(Br)cc2c1=O	i	1.01	93.0
Cc1cc2nnc(SCC(=O)c3ccc[nH]3)n2c(C)n1	i	1.2	101.0
CNS(=O)(=O)c1ccc(NC2CCc3ccccc32)c([N+](=O)[O-])c1 (stereo not drawn)	i	0.85	83.0
O=c1cc(COc2ccc(-c3ccccc3)cc2)nc2ccc(Br)cn12	i	1.11	92.0
O=C(NCC(c1cccs1)N1CCOCC1)c1sccc1-n1cccc1 (stereo not drawn)	i	1.05	80.0
O=S(=O)(c1ccc2c(c1)OCCCO2)N1CCN(c2ccccc2)CC1	i	1.03	99.0
CN1[C@@H]2CC(OC(=O)[C@H](CO)c3ccccc3)C[C@H]1[C@@H]1O[C@@H]12 (stereo partly drawn)	i	nt	nt	CFTR F508del fold 25 µM=1.07&1.06;CFTR F508del viability 25 µM=98.0&84.0

High-throughput results: PubChem, Southern Research Institute
